GLA inh pH 4.5 – inhibitors of human alpha-galactosidase A at pH 4.5. purified enzyme, 4-MU-alpha-Gal fluorescence, pH 4.5. activity change, negative = inhibition, % at 105 µM. P06280. AID 1467. 230,000 tested, under 10 active; inconclusive = small, poorly fitted or top-dose-only inhibition, or a rising curve; inactive = flat fitted curve, though single readings scatter; no compound was filed as active;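 note: 0% = full activity with enzyme and -100% = basal without enzyme; dose as in the result columns while the protocol names 77 µM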
Rango release inh – inhibitors of RanGTP-induced Rango-importin beta complex dissociation; O95149+P62826; Biochemical FRET Rango-importin beta, RanGTP-induced dissociation; Potency, µM (titrated, usually from 46.1 µM), without a hit: at the top dose activity change, negative = inhibition; hit rate 0.071% among 340,000; AID 540253; active means falling FRET ratio curve, often poorly fitted, with flat reads before Ran was added; inconclusive means other falling curves, or compound fluorescence or quenching; inactive means flat or rising ratio curve;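 note: potency is the fitted concentration of half-maximal effect; % of control where 0% means no effect; nearly all actives have a fitted effect of over 45% in size; -100% = wells without RanGTP and RCC1; the record marks most hits as doubtful in a second field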
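FRET read at 45 min, room temperature: inhibitors block the CFP/YFP signal rise when RanGTP (0.6 uM Ran, 2 mM GTP, 0.2 uM RCC1) frees Rango (0.1 uM) from importin beta (0.25 uM). Pre-read after 5 min compound exposure flags interference.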
miR-21 reporter – miR-21 reporter, rising signal | HeLa miR-21 FLuc reporter, luciferase, 48 h | Potency, µM (series often up to 38.3 µM), for the others: top-dose reporter change, positive = more light | 340,000 tested, under 10 active | AID 2288; active = well fitted rising curve with a large enough effect; inconclusive = small, poorly fitted or top-dose-only effect; inactive = no such curve, though single readings can be large or run the other way;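 note: % of control where 0% means no effect; miR-21 action dims this reporter so a rising signal means less miR-21 action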
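HeLa cells endogenously expressing miR-21, stably carrying CMV-driven firefly luciferase with a downstream miR-21 binding site, 2000 cells/well. Titrations up to approximately 40 uM, 48 hours; luciferase luminescence read.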
Rango-impB inh – prevents formation of the Rango-importin beta complex | Q14974 | Rango CFP/YFP FRET sensor + importin beta, 45 min | Potency, µM (doses to about 92.2 µM), for the others: at the top dose inhibition of complex formation | hit rate 0.031% among 340,000; active = rising FRET ratio curve, often small or poorly fitted; inconclusive = mostly compound fluorescence or quenching in the first reads; inactive = flat curves in all reads;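 note: potency is the fitted concentration of half-maximal effect; 0% = DMSO wells and 100% = buffer wells lacking importin beta; nearly all actives have a fitted effect of over 15% in size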
Target sequence (Q14974 whole entry, looked up): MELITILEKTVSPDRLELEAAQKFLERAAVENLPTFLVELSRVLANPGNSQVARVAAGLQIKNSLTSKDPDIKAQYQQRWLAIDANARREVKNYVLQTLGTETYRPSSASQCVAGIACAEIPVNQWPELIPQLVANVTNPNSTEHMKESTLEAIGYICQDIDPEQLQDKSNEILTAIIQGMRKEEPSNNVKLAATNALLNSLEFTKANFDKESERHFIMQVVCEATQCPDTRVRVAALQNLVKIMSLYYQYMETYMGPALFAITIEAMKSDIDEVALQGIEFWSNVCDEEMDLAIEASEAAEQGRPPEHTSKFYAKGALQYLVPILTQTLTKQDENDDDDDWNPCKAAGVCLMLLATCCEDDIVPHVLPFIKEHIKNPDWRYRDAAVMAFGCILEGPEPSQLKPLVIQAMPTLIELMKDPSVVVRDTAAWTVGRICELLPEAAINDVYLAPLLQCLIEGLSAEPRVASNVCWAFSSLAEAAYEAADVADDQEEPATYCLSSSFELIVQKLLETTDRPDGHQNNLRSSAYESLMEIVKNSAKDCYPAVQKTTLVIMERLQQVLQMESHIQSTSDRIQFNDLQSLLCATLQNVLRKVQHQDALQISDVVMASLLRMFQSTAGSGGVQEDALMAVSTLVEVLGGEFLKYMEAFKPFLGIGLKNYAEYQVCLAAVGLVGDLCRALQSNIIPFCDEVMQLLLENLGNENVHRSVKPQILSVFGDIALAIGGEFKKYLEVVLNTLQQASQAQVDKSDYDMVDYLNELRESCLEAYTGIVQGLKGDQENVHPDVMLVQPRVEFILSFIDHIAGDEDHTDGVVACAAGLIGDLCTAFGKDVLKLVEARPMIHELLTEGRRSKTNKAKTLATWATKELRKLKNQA
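Inhibition scored from the CFP 486 nm/YFP 530 nm FRET ratio 45 min after adding 0.125 microM importin beta to 50 nM Rango biosensor preincubated 5 min with compound (room temperature, PBS with DTT, Tween-20, BSA). No-importin wells as positive control.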
An asterisk follows results filed as active; ? = inconclusive; . = no result given. A portion of the library (hit frequency here may not be typical).

SMILES	GLA inh pH 4.5	Rango release inh	miR-21 reporter	Rango-impB inh
Cc1ccc(C)c(NS(=O)(=O)c2cc(C(=O)NCc3ccccn3)ccc2Cl)c1	-1	1%	-4%	-5.9%
Cc1cc(C(=O)NCCc2ccccc2)ccc1[N+](=O)[O-]	6	12%	-44%	-0.2%
O=C(c1ccccc1)C1CC=CCC1C(=O)c1ccccc1 (centres undefined)	.	3%	.	5.1%
CCCCNc1c(-c2ccc(SC(C)CC)c(OC)c2)nc2ccc(C)cn12 (centres undefined)	.	?	.	?
O=C(CCl)NC(=O)NC12CC3CC(CC(C3)C1)C2	6	10%	11%	-0.8%
COC(=O)C(CC(=O)c1ccccc1)CC(=O)c1ccccc1	.	-13%	-30%	0.9%
CC1(C)CC(=O)C(C=NCCCn2ccnc2)=C(O)C1	-7	-6%	-1%	-2.9%
Cc1c(C)c(C)c(CN2CCSCC2)c(C)c1C	3	-4%	0%	-1.6%
COc1ccccc1NC(=O)CCc1nc2ccccc2s1	0	-9%	-26%	2.4%
C/C(=N/NC(=O)C1COc2ccccc2O1)c1ccco1 (centres undefined)	6	3%	-4%	-0.8%
CCn1c(=O)c2cc(C(=O)N3CCCC3)sc2c2ccccc21	5	.	0%	.
Cc1ccc(C)c2[nH]c(=O)c(CN(CC3CCCO3)C(=O)NC3CCCCC3)cc12 (centres undefined)	-4	20%	-6%	4.5%
Cc1ccc(N=C2c3ccccc3C(=O)C2[N+](=O)[O-])cc1C (centres undefined)	1	-11%	-37%	0.0%
O=C(Nc1ccc(C(=O)NCc2ccccc2)cc1)C1=CSCCO1	.	-9%	-49%	-1.9%
CC1CCc2c(sc(/N=C/N(C)C)c2C#N)C1 (centres undefined)	-3	0%	-64%	-4.2%
O=C(COC(=O)c1cncc(Br)c1)NC1CC1	1	0%	0%	3.4%
O=C(N/N=C/c1sc(N2CCOCC2)nc1-c1ccccc1)c1cccc(S(=O)(=O)N2CCOCC2)c1	-20	?	27%	?
NC(=S)n1[nH]c(-c2ccc([N+](=O)[O-])cc2)c(N=Nc2ccc(O)cc2)c1=O	4	0%	-4%	?
O=C(NC1CCCCCCC1)NC1CCCCC1	1	-16%	-51%	-0.3%
Cc1cc(C)cc(OCc2ccc(C(=O)O)o2)c1	?	-14%	-19%	-2.7%
Cc1cc(C)nc(SC2CCCCC2NS(=O)(=O)c2ccc(Cl)cc2)n1 (centres undefined)	-11	-1%	-10%	2.7%
O=C1C(=O)N(CC2CCCO2)C(c2ccccc2[N+](=O)[O-])/C1=C(/O)c1ccccc1 (centres undefined)	2	-20%	-14%	0.4%
Cc1nccn1-c1c2c(c(C#N)c3nc4ccccc4n13)CCC2	4	?	5%	?
O=C(CSc1nnnn1-c1ccccc1)Nc1ncc(Cc2cccc(Cl)c2Cl)s1	0	-21%	-2%	4.5%
CCOC(=O)C1C(=O)NC(c2ccccc2)=NC1c1ccc(F)cc1 (centres undefined)	3	-11%	-5%	-0.5%

Reprinted from the part before: seven entries, then new ones.
SMILES	GLA inh pH 4.5	Rango release inh	miR-21 reporter	Rango-impB inh
O=C(NC1CCCCCCC1)NC1CCCCC1	1	-16%	-51%	-0.3%
Cc1cc(C)cc(OCc2ccc(C(=O)O)o2)c1	?	-14%	-19%	-2.7%
Cc1cc(C)nc(SC2CCCCC2NS(=O)(=O)c2ccc(Cl)cc2)n1 (centres undefined)	-11	-1%	-10%	2.7%
O=C1C(=O)N(CC2CCCO2)C(c2ccccc2[N+](=O)[O-])/C1=C(/O)c1ccccc1 (centres undefined)	2	-20%	-14%	0.4%
Cc1nccn1-c1c2c(c(C#N)c3nc4ccccc4n13)CCC2	4	?	5%	?
O=C(CSc1nnnn1-c1ccccc1)Nc1ncc(Cc2cccc(Cl)c2Cl)s1	0	-21%	-2%	4.5%
CCOC(=O)C1C(=O)NC(c2ccccc2)=NC1c1ccc(F)cc1 (centres undefined)	3	-11%	-5%	-0.5%
COc1ccccc1NC(=O)CN1CCN(CC(=O)Nc2ccccc2Cl)CC1	.	20%	0%	-2.0%
Cc1ccc(Nc2nc(CSc3nnnn3-c3ccccc3)cc(=O)[nH]2)cc1	-4	2%	14%	1.4%
CCN(C(=O)COC(=O)CCCc1nc2ccccc2s1)c1c(N)n(Cc2ccccc2)c(=O)[nH]c1=O	.	-33%	.	?
CCN(CC)c1nc2ccccc2n2cnnc12	-5	0%	-24%	-4.9%
C#Cc1ccc(C(=O)Nc2cc(C(N)=O)ccc2N2CCOCC2)cc1	8	0%	-6%	-4.1%
C/C(=N\NC(=O)C(=O)Nc1c(C)n(C)n(-c2ccccc2)c1=O)c1ccncc1	-1	0%	4%	1.2%
COc1ccc(Nc2c3c(nc4ccccc24)CCCC3)cc1OC	-4	12%	10%	-1.1%
CCN(CC(=O)Nc1c(F)cccc1F)C(=O)CCC(=O)c1ccc(F)cc1	.	-5%	.	-3.8%
CCc1nc2ccccc2c(C(=O)OCC(=O)NCc2ccc3c(c2)OCO3)c1C	-1	1%	-3%	-0.5%
COc1ccc(C2/C(=C(/O)c3ccccc3)C(=O)C(=O)N2c2ccccn2)cc1OC (centres undefined)	0	6%	-7%	0.0%
O=C(CN(Cc1ccccc1)C(=O)CCC(=O)Nc1ccccn1)NCc1ccc(F)cc1	.	0%	4%	-3.5%
COc1ccc(N(CN2C(=O)c3ccccc3C2=O)C(=O)C(C)C)cc1	-3	-5%	-1%	-5.5%
CN(C)c1ccc(NC(=S)c2ccc3ccccc3n2)cc1	.	-12%	-19%	1.9%
CCOC(=O)N1CCC(NC(=O)C2CCN(Cc3nc(-c4ccc(CC)cc4)oc3C)CC2)CC1	.	-1%	.	3.2%
C=CCNC(=O)C1=NN(c2c(F)c(F)cc(F)c2F)C(=O)CC1	.	-2%	-2%	0.9%
O=C(COC(=O)CNC(=O)C1CCCCC1)Nc1ccc(F)c([N+](=O)[O-])c1	.	-11%	.	2.9%
c1ccc(-n2ncc3c(NC4CCCCCC4)ncnc32)cc1	7	-23%	-38%	-2.3%
Cc1ccc(SCCC(=O)Nc2c(C)n(C)n(-c3ccccc3)c2=O)cc1	6	-5%	-1%	2.1%
COc1cc(/C=C2/C(=O)NN(c3ccc(C)c(Cl)c3)C2=O)cc([N+](=O)[O-])c1O	.	-8%	-2%	-0.3%
CCNC(=O)COc1cccc2ccccc12	6	-1%	-7%	3.3%
Cc1ccc(Cl)cc1NS(=O)(=O)c1ccc2oc(=O)ccc2c1	.	-14%	-1%	-2.9%
Cc1ccc(N2CC(C(=O)OCC(=O)Nc3ccccc3F)CC2=O)cc1 (centres undefined)	7	2%	-22%	-4.1%
S=C(NCC1CCCO1)N1CCN(c2ccccc2)CC1 (centres undefined)	-3	-7%	1%	-1.9%
COc1ccccc1C(=O)CC(=O)C(=O)Nc1cccc([N+](=O)[O-])c1C	.	1%	-7%	-1.1%
O=C(O)CCCCCNC(=O)C(=O)C1C(=O)Nc2ccccc21 (centres undefined)	2	30%	-15%	-1.7%

More records:
SMILES	GLA inh pH 4.5	Rango release inh	miR-21 reporter	Rango-impB inh
O=C(NCc1ccccc1)C(c1ccco1)N(C(=O)c1csnn1)c1ccccc1F (centres undefined)	.	2%	5%	-1.1%
COc1ccc(C(=O)N2CCC(C(=O)N3CCN(Cc4ccccc4)CC3)CC2)cc1	.	24%	-3%	0.0%
CSc1ccccc1OCc1cc(C(=O)NCC(C)(C)N2CCOCC2)no1	.	3%	1%	-3.2%
COc1ccc(O)cc1	.	-4%	.	1.8%
COC(=O)Cn1c(CCS(=O)(=O)c2ccc(Cl)cc2)nc2ccccc21	3	3%	0%	-1.0%
Cc1ccc(C(=O)/C=C/c2cn(CN3CCN(C)CC3)c3ccccc23)cc1	-2	?	-41%	?
CCN(CC)C(=O)OCc1c(-c2ccccc2)ncc2ccccc12	.	1%	.	-2.6%
COc1cc(NC(=O)CCc2nnc3ccc(N4CCCC4)nn23)cc(OC)c1OC	.	11%	-9%	1.5%
COc1ccccc1N1CCN(C(=O)C(C)N(c2ccccc2)S(C)(=O)=O)CC1 (centres undefined)	2	-1%	0%	0.2%
COCCn1ccc2c(OCC(=O)NCc3ccccc3)cccc2c1=O	.	2%	.	-1.2%
COc1ccc(CNCc2cc(OC)ccc2OC)cc1	.	10%	7%	-5.8%
COc1cc(C(=O)N2CCN(C/C=C/c3ccccc3)CC2)cc(OC)c1OC	-3	-22%	-2%	-5.1%
O=C(CSc1nc2ccccc2nc1N1CCCC1)Nc1ccc(F)cc1	.	-2%	-7%	?
CSCCC(NS(=O)(=O)c1ccc(Cl)cc1)C(=O)OCC(=O)NC1CCCCC1 (centres undefined)	3	-9%	-2%	-2.9%
CCOC(=O)c1nnn(-c2ccc([N+](=O)[O-])cc2[N+](=O)[O-])c1C	1	1%	15%	-2.1%
CCNC(=S)N(CCc1c(C)[nH]c2ccc(Cl)cc12)Cc1ccco1	?	-13%	?	4.8%
CC(C)(C)OC(=O)CNC(=O)c1[nH]cnc1C(=O)NC(c1ccccc1)c1ccccc1	.	1%	13%	-0.5%
O=C(NCCc1ccc(Cl)cc1)c1ccc(Br)s1	.	13%	-45%	3.4%
CC(C)(C)c1cc(CCC(=O)NNC(=S)NC(=O)c2ccccc2)cc(C(C)(C)C)c1O	-2	4%	21%	0.1%
N#CC1=C(S)N(c2ccccc2)C2(CCCCC2)NC1=O	-5	9%	10%	3.9%
COc1ccc(C)cc1NC(=O)c1ccccc1NS(=O)(=O)c1ccc(Cl)s1	-1	-1%	?	0.2%
Cc1ccccc1-c1nnc2s/c(=C\c3ccc(N(C)C)cc3)c(=O)n12	-3	.	1%	.
S=c1[nH]ncn1NCc1cccc(Br)c1	.	25%	.	7.6%
CCN(CC(=O)Nc1c(F)cccc1F)C(=O)C1CC(=O)N(CCc2ccc(OC)c(OC)c2)C1 (centres undefined)	.	-18%	.	-4.7%
CCOC(=O)c1c(CC(C)C)csc1NC(=O)COC(=O)c1cc(OC)c(OC)cc1[N+](=O)[O-]	-5	8%	-5%	4.9%

More compounds.
SMILES	GLA inh pH 4.5	Rango release inh	miR-21 reporter	Rango-impB inh
COC(=O)c1ccc(NC(=O)C(C)Oc2ccccc2)cc1 (centres undefined)	0	6%	-11%	0.1%
Cc1nnc(SCC(=O)Nc2cc(S(=O)(=O)N3CCCC3)ccc2Cl)s1	-3	1%	-10%	1.0%
Cc1ccc(C(C)C)c(O)c1	-6	6%	.	3.7%
COc1ccc(N2CCN(S(=O)(=O)CCNC(=O)C(C)Oc3ccccc3)CC2)cc1 (centres undefined)	.	7%	.	5.5%
CCCn1c(C)cc(/C=C(\C#N)C(=O)OCC(=O)Nc2cccc(S(N)(=O)=O)c2)c1C	.	-3%	.	?
CC(C)[C@H](NC(=O)c1ccccc1Cl)C(=O)Nc1ccc(S(=O)(=O)Nc2nccs2)cc1	.	-29%	.	-8.2%
CC(C)Oc1cccc(-c2cc(C(=O)NC(=S)N(C)c3ccccc3C(=O)O)c3ccccc3n2)c1	-1	5%	-17%	2.7%
Cc1ccc(S(=O)(=O)Nc2ccc3c(c2)CC(=O)N([C@H](C)CO)C[C@H](C)[C@H](CN(C)Cc2ccc4c(c2)OCO4)O3)cc1	.	-13%	.	-0.5%
Cc1ccccc1NCC(=O)c1ccc(Br)cc1	.	-8%	1%	0.7%
COC(=O)C1=C(C)NC(=O)NC1c1cccc(OC)c1OCc1ccccc1 (centres undefined)	9	-16%	-1%	-0.9%
Cc1cc(C)c(C)c(OCc2nc(-c3cccnc3)no2)c1	1	0%	-3%	0.2%
CN(CC(=O)Nc1cccc2c1CCCC2)S(=O)(=O)c1ccc(Br)cc1	3	4%	-2%	-7.0%
O=C(NC1CCCCCC1)c1cc2n(n1)C(C(F)(F)F)CC(c1ccco1)N2 (centres undefined)	4	-9%	-9%	0.7%
COc1cc(NC(=S)NCCCN2CCOCC2)c(OC)cc1Cl	3	2%	-1%	-1.0%
Cc1cc(N(C)C)ccc1N=Nc1ccc2ncccc2c1	-6	45%	-81%	2.7%
O=S(NCc1ccccc1)C12CC3CC(CC(C3)C1)C2 (centres undefined)	0	14%	-8%	-4.7%

Single records (already shown). Values in the order: GLA inh pH 4.5 | Rango release inh | miR-21 reporter | Rango-impB inh
CCCn1c(C)cc(/C=C(\C#N)C(=O)OCC(=O)Nc2cccc(S(N)(=O)=O)c2)c1C as listed: . | -3% | . | ?
Cc1ccc(C(C)C)c(O)c1 as listed: -6 | 6% | . | 3.7%
